Vif A3G: HIV-1 Vif–A3G interaction blockers – biochemical, TR-FRET, GST-Vif 1-94, biotin-A3G peptide, dose response retest, primary screen (AID 1117319); TR-FRET GST-Vif / biotin-A3G peptide binding; higher % means a stronger effect; test concentration not given here; strong numbers were not always called active; inhibition, %, or IC50 in µM where a hit was titrated; 260,000 tested, 0.57% active;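 active = above the screen mean plus three standard deviations and confirmed in dose response; inconclusive = results disagree or hit not tested in dose response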;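 also: Vif residues 1-94 fused to GST binding biotinylated APOBEC3G peptide 110-148; 0% = full assay without inhibitor and 100% = GST in place of GST-Vif; retest series ran down from 100 µM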
LANA-H2A inh: blocks KSHV LANA binding to histone H2A/H2B. Q9QR71. inhibition, % (no concentration beside the values). 320,000 tested, 0.6% active. cell-free LANA-H2A/H2B peptide, fluorescence polarization; in the data active = inhibition mostly above about 10%, no sharp cut-off; inactive = mostly below about 6.7%;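 also: stock transfer was 7.5 nL into about 10 µL; 0% = median of vehicle wells and 100% = median of positive control wells; one replicate is shown; the record names a cut of 25% in any replicate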
Target sequence (Q9QR71 whole entry, looked up): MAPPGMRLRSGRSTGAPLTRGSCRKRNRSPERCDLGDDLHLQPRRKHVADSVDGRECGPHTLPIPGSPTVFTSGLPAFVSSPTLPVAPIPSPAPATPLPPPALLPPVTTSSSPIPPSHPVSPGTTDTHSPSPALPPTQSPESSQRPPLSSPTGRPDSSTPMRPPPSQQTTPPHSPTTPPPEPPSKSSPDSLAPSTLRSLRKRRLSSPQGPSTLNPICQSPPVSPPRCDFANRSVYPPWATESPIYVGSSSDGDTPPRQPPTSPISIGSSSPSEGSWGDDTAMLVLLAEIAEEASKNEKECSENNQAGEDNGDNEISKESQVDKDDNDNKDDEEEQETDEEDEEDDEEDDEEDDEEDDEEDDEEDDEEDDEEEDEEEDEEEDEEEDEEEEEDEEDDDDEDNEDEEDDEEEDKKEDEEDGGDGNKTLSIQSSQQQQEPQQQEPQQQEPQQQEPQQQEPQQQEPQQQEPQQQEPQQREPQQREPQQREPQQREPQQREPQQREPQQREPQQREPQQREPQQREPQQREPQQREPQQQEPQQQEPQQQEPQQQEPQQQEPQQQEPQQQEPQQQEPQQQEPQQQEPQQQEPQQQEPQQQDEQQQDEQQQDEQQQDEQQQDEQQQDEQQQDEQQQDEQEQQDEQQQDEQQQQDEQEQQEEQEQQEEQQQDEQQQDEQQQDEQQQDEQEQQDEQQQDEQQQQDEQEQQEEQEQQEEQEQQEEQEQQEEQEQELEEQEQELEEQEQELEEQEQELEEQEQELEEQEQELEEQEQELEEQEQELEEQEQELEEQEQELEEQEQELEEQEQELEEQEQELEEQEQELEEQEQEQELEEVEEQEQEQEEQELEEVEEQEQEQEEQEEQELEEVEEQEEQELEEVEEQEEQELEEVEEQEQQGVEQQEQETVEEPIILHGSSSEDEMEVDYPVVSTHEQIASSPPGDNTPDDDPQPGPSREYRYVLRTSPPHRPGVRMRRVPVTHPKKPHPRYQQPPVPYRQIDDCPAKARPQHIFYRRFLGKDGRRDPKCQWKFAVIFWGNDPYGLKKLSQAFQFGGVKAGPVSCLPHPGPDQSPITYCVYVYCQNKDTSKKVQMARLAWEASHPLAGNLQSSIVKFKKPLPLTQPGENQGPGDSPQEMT
A1 inh: inhibitors of the anti-apoptotic protein A1, read as caspase activation; MEF A1-2A-BIM cells, Caspase-Glo 3/7 luminescence, 3 h; percent of clofoctol response, vehicle zero; 330,000 tested, 0.066% active; caspase activation, % (no concentration beside the values);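 active = over half of replicate activation scores above 10%, or exactly half above 10 with the replicate mean above 10; inconclusive = replicate mean below 10 yet half the replicates above 10; inactive = over half of replicates below 10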;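 also: wells of about 30 µL received 50 nL stock; many hits fall short of the cut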
HNF4A DNA FP: change in binding of human HNF4 alpha to DNA | 360,000 tested, 0.3% active | HNF4a-FITC DNA binding, fluorescence polarization, 1 h | activity change, % at 10 µM; in the data active = activity change above about 30%, passing the limit was not always enough;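 also: controls were the assay level and a saturating level of protein; the project sought stronger binding though the title names inhibitors; some compounds called inactive have numbers as strong as hits; positive values seem to mean higher polarization but the record does not say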
Ecoli growth: inhibitors of Escherichia coli growth; OD600, 23 h; active compounds read low; OD600 absorbance (no concentration beside the values); 330,000 tested, 0.21% active; AID 1053175;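 active = OD600 absorbance below the run mean of sample wells minus 3.6 SD, in any replicate, cut at about 0.56 in these data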;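 also: stock transfer was 300 nL into about 60 µL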
UCH37 inh: blocks the human deubiquitinase UCH37 | Q9Y5K5 | 330,000 tested, 0.33% active | purified proteasome/UCH37, Ub-AMC cleavage fluorescence | AID 588478 | inhibition, % (concentration not given with the values);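 active = mean of two replicates above 20%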;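 also: 0% = compound-free wells with enzyme and 100% = wells lacking proteasome; stock transfer was 100 nL into about 20 µL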
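system = Proteasome-associated human UCH37 deubiquitinase | amount = 0.15 nM proteasome as dispensed | medium = pH 7.4 Tris-HCl (50 mM) with ovalbumin, ATP-MgCl2, DTT | incubation = 30 min preincubation with enzyme, 25 min cleavage at room temperature | detection = AMC fluorescence 355/460 nm | read-out basis = percent inhibition | controls = no-proteasome and no-compound wells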
Beta2AR agonist: activates human beta-2 adrenergic receptor causing internalization; P07550; Am2.2-beta2AR cells, FAP receptor internalization, flow cytometry; reference of the scale not given here; response, % (test concentration not listed); 340,000 tested, 0.43% active; AID 504454;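 active = response above a set limit, near 3 SD of response in nonfluorescent compounds, cut at about 42% in these data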;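 also: stock transfer was 100 nL into about 11 µL; a reference agonist was the positive control; negative values mostly stem from fluorescent compounds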
The depositor's hits bear a star; ? = inconclusive; nt = not tested or not shown; & = joins results of further samples.

cpd	SMILES	LANA-H2A inh	Ecoli growth	Beta2AR agonist	HNF4A DNA FP	UCH37 inh	Vif A3G	A1 inh
1	O=C(c1ccc(S(=O)(=O)NCC2CCCO2)cc1)N1CCN(c2ccccc2)CC1 (stereo not drawn)	-7.4	0.69	2	1.2	0.9	11%	1.0
2	Cc1ccc(N2CCN(C(=O)c3ccccc3NC(=O)C3CCCCC3C(=O)O)CC2)cc1 (stereo not drawn)	2.7	0.74	7	1.3	4.7	0%	1.0
3	O=C(CCSc1nnc(-c2ccco2)o1)N1CCOCC1	3.7	0.66	-6	1.8	1.9	7%	0.3
4	O=C(NC(=S)Nc1ccc(N2CCCCC2)c(Cl)c1)c1cccs1	-5.0	0.76	2	2.8	-1.2	-1%	0.1
5	O=C(Nc1cc(S(=O)(=O)Nc2ccccc2F)ccc1Cl)c1ccc(F)cc1F	-2.3	0.66	-1	4.0	2.5	-4%	-0.1
6	O=C(Nc1nc2c(s1)CCCC2)c1cc(-c2ccncc2)nc2ccccc12	-1.4	0.71	10	6.2	4.7	nt	-0.9
7	O=C(NCCc1cccs1)c1cccs1	-0.4	0.66	2	5.2	4.3	nt	-2.0
8	Cc1csc(NC(=O)c2ccc[nH]c2=O)n1	1.3	0.68	-2	2.2	9.9	nt	-5.1
9	Cc1nc(CSc2nnc3scc(-c4ccc(Cl)cc4)n23)cs1	-0.5	0.71	-5	8.7	2.7	0%	0.1
10	CCN(C(=O)COC(=O)Cc1c[nH]c2ccccc12)C1CCS(=O)(=O)C1 (stereo not drawn)	-0.6	0.7	2	-2.3	2.2	nt	1.1
11	C=CCNc1nc(C(=O)OCC(=O)Nc2ccc(S(N)(=O)=O)cc2)cs1	-3.4	0.63	4	-0.1	3.8	-2%	-0.1
12	CCOC(=O)c1sc2nc3n(c(=O)c2c1C)CCCCC3	4.3	0.71	-1	-1.0	0.0	-4%	-0.1
13	CCOC(=O)N1CCC(N2CC34C=CC(O3)C(C(=O)Nc3ccc(C)cc3)C4C2=O)CC1 (stereo not drawn)	-1.3	0.73	1	3.4	2.0	3%	1.0
14	CCc1ccc(NC(=O)C2=CC(c3ccc(OC)c(OC)c3)=NS(=O)(=O)N2C)cc1	2.9	0.71	12	2.6	1.1	nt	0.4
15	COc1cc(Br)cc(/C=C/c2ccc3cccc(O)c3n2)c1O	-1.6	0.69	14	-1.3	0.5	14%	0.6
16	Cc1ccc(C)c(C(=O)COc2ccc(C)nc2[N+](=O)[O-])c1	1.8	0.77	3	3.0	1.4	32%	-1.3
17	COc1cc(C(=O)NC2=NCCS2)ccc1OCc1c(C)noc1C	1.9	0.7	-5	0.4	-1.2	14%	0.0
18	Clc1ncnc2c1oc1ccccc12	0.4	0.66	0	-2.5	4.5	-1%	-0.5
19	COc1cc(CCC(=O)Nc2cccc(C(F)(F)F)c2)cc(OC)c1OC	-14	0.73	-8	2.9	4.2	64%	0.5
20	COc1cccc(-n2cc(CNCc3cn(C)nc3-c3ccccc3F)cn2)c1	8.7	0.74	3	2.2	-3.4	7%	-0.3
21	O=C1/C(=C/c2ccccc2)NC(=S)N1C(c1ccccc1)c1ccccc1	3.0	0.73	0	0.0	0.5	3%	0.8
22	COCc1cccc(C(=O)NC(c2ccccc2)c2ccccc2)c1	0.0	0.64	-8	-0.6	6.5	nt	0.2
23	COc1ccc(Cl)cc1NC(=O)CN(C)C(=O)Cc1ccc(-c2ccccc2)cc1	2.9	0.69	2	3.5	2.0	2%	-0.1
24	O=c1c2c([nH]c3ccc(Br)cc13)CCCC2	-2.0	0.67	-9	-0.1	0.7	-11%	1.5
25	Cc1onc(-c2ccccc2)c1C(=O)NC(=S)NNC(=O)c1ccc(O)cc1	11	0.7	1	-2.2	3.4	2%	0.2
26	CCOc1ccc(S(=O)(=O)/N=C(\N)c2ccccc2)cc1	0.5	0.66	-1	-2.0	-2.0	?	-0.1
27	CCc1cc(C(=O)N=Nc2c(O)[nH]c3ccc([N+](=O)[O-])cc23)c2ccccc2n1	-0.4	0.71	15	-1.3	11	8%	0.8
28	O=C(Nc1ccccc1)c1cccc(N2C(=O)CCC2=O)c1	-3.1	0.78	4	-0.7	1.4	6%	-1.4
29	Cc1cccc(CC(=O)N2CCCC2)c1	-1.5	0.7	-4	-1.3	3.2	nt	-2.8
30	COc1ccc(N(CC(=O)NCCSc2ccccc2)S(=O)(=O)c2ccccc2)c(OC)c1	0.7	0.72	14	3.2	3.5	24%	-0.1
31	CNc1snc(C)c1C(=O)OCC(=O)c1ccc(OC)c(F)c1	-478	0.65	0	6.3	3.8	-23%	0.5
32	O=C(COC(=O)c1ccccn1)Nc1c(Cl)cccc1Cl	-1.4	0.69	-3	2.2	-0.1	?	0.1
33	CC(C)CCn1c(SCC(=O)NC2CC2)nc2cc(Cl)ccc2c1=O	-9.0	0.71	-8	0.7	2.9	-2%	0.2
34	CCOC(=O)c1oc2ccc(S(=O)(=O)Nc3ccc4c(c3)n(C)c(=O)n4C)cc2c1C	0.3	0.65	2	-0.1	0.5	0%	1.3
35	Nc1ccc(N(CCO)CCO)cc1	6.3	0.67	1	-3.7	5.4	2.2µM*	-0.3
36	C/C(Cl)=C\Cn1c(Nc2cccc(C)c2)nc2c1c(=O)n(C)c(=O)n2C	-0.5	0.7	-12	1.2	3.8	0%	0.1
37	COc1cc(/C=N/NC(=O)c2cccc(S(=O)(=O)N3CCCCC3)c2)cc(Br)c1O	-0.4	nt	9	0.3	nt	4%	-0.9
38	CC(C)OC(=O)CCCCCN1C(=O)CSC1=S	-0.2	0.7	-9	-2.3	2.0	0%	0.1
39	CCc1ccc(NC(=O)Cn2nnc(C(=O)NCc3ccc4c(c3)OCO4)c2N)cc1	0.5	0.67	-6	-4.0	0.8	-5%	1.1
40	COCCCNC(=O)c1ccc(N2CCOCC2)c(NS(=O)(=O)c2ccc(OC)cc2)c1	5.4	0.68	3	3.2	2.9	3%	1.1
41	O=C(Nc1ccc(F)cc1F)c1csc(-c2cccs2)n1	1.9	0.74	3	1.7	-5.5	nt	0.9
42	CC(=O)N[C@@H]1[C@@H](O)[C@@H]2OC(c3ccccc3)OC[C@H]2O[C@@H]1N=[N+]=[N-] (stereo partly drawn)	-5.9	0.65	1	0.8	2.2	-3%	0.9
43	CCOC(=O)c1c(C)n(C)c2ccc(OC)c(NC(=O)c3cccs3)c12	-1.6	0.7	1	-1.2	5.0	?	-0.2
44	CCN(CC)C(=O)c1ccc(Nc2nnc(-c3ccc(O)cc3)c3ccccc23)cc1	-0.9	0.71	18	-0.1	-7.6	2%	-0.2
45	CCOC(=O)CC1COCCN1C(=O)c1cc(COc2ccc(F)cc2Cl)on1 (stereo not drawn)	-0.6	0.65	7	4.1	0.9	nt	-0.2
46	O=C(NCCSc1ccccc1)c1ccccc1Cl	8.8	0.67	2	1.7	1.0	24%	-6.2
47	Cc1cccc(C)c1NC(=O)CNC(=O)c1cncc(Br)c1	0.5	0.65	-10	-1.8	4.6	-2%	-0.1
48	COC(=O)c1ccccc1NC(=O)C1CCC(=O)N1S(=O)(=O)c1ccc(C)cc1 (stereo not drawn)	-5.5	0.7	4	3.1	2.0	-5%	-0.3

Fetched by structure from the list above, four records:
cpd	SMILES	LANA-H2A inh	Ecoli growth	Beta2AR agonist	HNF4A DNA FP	UCH37 inh	Vif A3G	A1 inh
8	Cc1csc(NC(=O)c2ccc[nH]c2=O)n1	1.3	0.68	-2	2.2	9.9	nt	-5.1
41	O=C(Nc1ccc(F)cc1F)c1csc(-c2cccs2)n1	1.9	0.74	3	1.7	-5.5	nt	0.9
5	O=C(Nc1cc(S(=O)(=O)Nc2ccccc2F)ccc1Cl)c1ccc(F)cc1F	-2.3	0.66	-1	4.0	2.5	-4%	-0.1
27	CCc1cc(C(=O)N=Nc2c(O)[nH]c3ccc([N+](=O)[O-])cc23)c2ccccc2n1	-0.4	0.71	15	-1.3	11	8%	0.8

Next entries follow.
cpd	SMILES	LANA-H2A inh	Ecoli growth	Beta2AR agonist	HNF4A DNA FP	UCH37 inh	Vif A3G	A1 inh
49	Cc1cc(Cl)nc(Cl)c1C(=O)NCCc1ccccc1	2.0	0.7	-9	2.4	4.3	2%	-0.7
50	COc1cc2cc(CCCOC(=O)CCC(=O)O)oc(=O)c2cc1OC	2.0	0.68	5	-1.4	1.3	nt	0.0
51	CCCCNc1c(-c2ccc(SC3CCCCC3)cc2)nc2cnccn12	nt	0.71	-244	5.2&6.8	-171	nt	nt
52	CCCS(=O)(=O)NCCc1cc2cc(C)c(C)cc2[nH]c1=O	5.1	0.74	-3	-1.6	-7.6	?	-0.1
53	O=C1CC(c2cccnc2)c2cc3c(cc2N1)OCCO3 (stereo not drawn)	-2.2	0.69	8	-4.3	5.8	-3%	0.4
54	Cc1ccc(OCC(=O)Nc2ccc3c(c2)OC(F)(F)O3)c([N+](=O)[O-])n1	0.3	0.69	-6	-3.1	1.7	22%	-0.8
55	CCNC(=O)COc1ccc2ccccc2c1	5.9	0.68	5	4.1	3.0	-5%	-1.2
56	COC(=O)c1ccccc1NCC(=O)c1ccc(OC)cc1	-1.2	nt	-3	-1.7	nt	nt	-1.0
57	OCc1csc(=Nc2ccccc2)n1-c1ccccc1	-2.8	0.7	-7	0.2	5.9	3%	-0.4
58	CCOC(=O)c1c(C)n(C)c2ccc(OC)c(NC(=O)CN3CCN(C4CCCCC4)CC3)c12	1.3	0.66	10	-1.7	0.1	9%	0.0
59	COc1ccc(S(=O)(=O)N(C)C2(C)CCS(=O)(=O)C2)cc1OC (stereo not drawn)	5.5	0.64	1	-0.4	1.1	0%	-0.1
60	Cc1ccc(S(=O)(=O)Cn2nnnc2CN2CCN(C(=O)c3ccco3)CC2)cc1	1.1	0.79	-1	-4.1	-0.4	22%	-0.6
61	CC(C)C[C@H](NC(=O)C1CC(=O)N(c2ccc(F)cc2)C1)C(=O)N1CCCCC1 (stereo partly drawn)	-6.6	0.66	-1	-2.8	6.5	nt	0.1
62	CCCCCCS(=O)Cc1ccccc1 (stereo not drawn)	-0.6	0.68	-6	-2.7	1.5	0%	1.2
63	CC1CN(S(=O)(=O)c2ccccc2)CC(C)O1 (stereo not drawn)	0.8	0.65	-2	-0.8	1.3	?	?

Bioassay records from PubChem.
